STK33 kinase inh – human STK33 kinase inhibition. purified STK33, MBP phosphorylation, ADP-Glo luminescence. inhibition, % at 10 µM. hit rate 0.073% among 320,000;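 active = inhibition at or above 25%, using the most active replicate where run in duplicate; inactive = inhibition below 25%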
Target sequence (Q9BYT3 whole entry, looked up): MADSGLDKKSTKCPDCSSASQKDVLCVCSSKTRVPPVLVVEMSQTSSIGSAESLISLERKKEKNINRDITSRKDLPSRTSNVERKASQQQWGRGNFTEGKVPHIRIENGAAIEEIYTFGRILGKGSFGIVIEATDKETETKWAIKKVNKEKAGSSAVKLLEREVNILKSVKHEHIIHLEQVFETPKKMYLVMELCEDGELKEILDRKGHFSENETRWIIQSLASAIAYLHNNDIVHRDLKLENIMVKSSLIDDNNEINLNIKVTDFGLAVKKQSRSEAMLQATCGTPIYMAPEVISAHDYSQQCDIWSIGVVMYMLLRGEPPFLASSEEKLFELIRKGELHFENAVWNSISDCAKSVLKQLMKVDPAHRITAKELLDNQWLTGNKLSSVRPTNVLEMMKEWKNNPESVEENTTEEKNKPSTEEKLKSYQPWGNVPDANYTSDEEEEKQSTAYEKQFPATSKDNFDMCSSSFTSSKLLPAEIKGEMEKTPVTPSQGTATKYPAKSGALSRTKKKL
* hit, by the source's call.

A first look:
SMILES	STK33 kinase inh
CC(C)c1ccc(NC(=O)C(c2ccccc2)N2CC(=O)Nc3ccccc32)cc1 (configuration not stated)	-1.2
COc1ccc(N2CCN(c3nc(Cl)nc(Nc4ccc(F)cc4)n3)CC2)cc1	-1.7
Cc1cc(C)c2nc(SCCC#N)nc(C)c2c1	-0.7

The listing, previewed entries included:
SMILES	STK33 kinase inh
CC(C)c1ccc(NC(=O)C(c2ccccc2)N2CC(=O)Nc3ccccc32)cc1 (configuration not stated)	-1.2
COc1ccc(N2CCN(c3nc(Cl)nc(Nc4ccc(F)cc4)n3)CC2)cc1	-1.7
Cc1cc(C)c2nc(SCCC#N)nc(C)c2c1	-0.7
COc1ccccc1N1CCN(C(=O)c2cccc3c(=O)c(C)c(-c4ccccc4)oc23)CC1	-0.3
Cc1csc(NC(C)c2nc3cc(Cl)c(N4CCCCC4)cc3n2CCOCCO)n1 (configuration not stated)	-0.8
C/C(=N\Nc1nc(N2CCCCC2)nc(N2CCOCC2)n1)c1cccs1	-0.6
Cc1cc(NC(=O)CSc2nnnn2-c2ccc(C)c(C)c2)no1	0.0
COc1ccc(OCC(=O)c2c[nH]c3ccccc23)cc1	-2.6
COC(=O)c1ccccc1NC(=O)NC1CCCC1	-0.5
COc1ccc(CC(=O)Nc2cccc(-c3nnc(-c4ccco4)o3)c2)cc1	-0.4
CN(C)c1ccc(/C=N/NC(=O)CCCCCNC(=O)c2ccccc2)cc1	1.2
COc1ccc(NS(=O)(=O)c2cccc(C(=O)NNC(=O)c3cc(C)oc3C)c2)cc1	-1.9
Brc1ccc(-c2csc(N3CCCCCC3)n2)cc1	0.0
CCOC(=O)c1c(NC(=O)C(Sc2ccccc2)c2ccccc2)sc(C(N)=O)c1C (configuration not stated)	0.8
CC(Sc1nncn1C)C(=O)Nc1ccccc1-c1ccccc1 (configuration not stated)	0.0
O=C(c1ccc(F)cc1)C1CCN(C(=S)Nc2ccccc2Cl)CC1	-0.3
CC(=O)c1ccc(Oc2cc(-c3ccccc3)nc(-c3ccccc3)n2)cc1	-1.5
Cn1cc(CNC(=O)C2CCC(=O)N(Cc3ccc(Cl)cc3)C2)cn1 (configuration not stated)	-0.1
O=C(N/N=C/c1ccc(OC(=O)c2ccc3c(c2)OCO3)cc1)c1cncc(Br)c1	-2.0
CNC(=O)NC(=O)C(C)OC(=O)c1oc2ccccc2c1CSc1ccc(Cl)cc1 (configuration not stated)	-2.2
COc1ccccc1-n1c(=O)[nH]c2c(C(N)=O)nc(CC(C)C)nc21	0.6
N#Cc1ccc(C(=O)CSc2n[nH]c(=O)n2Cc2ccco2)cc1	-2.2
CCCC(=O)C1=C(O)C(C(=O)OC)C(C)(C)CC1=NCCCCCC(=O)O (configuration not stated)	-2.2
O=C1NC2(CCCCC2)CO1	2.8
O=C(c1cc(-c2ccc(Cl)c(Cl)c2)on1)N1CCOCC1	0.8
Remaining list, next part
SMILES	STK33 kinase inh
O=C(CSc1nc2ccccc2s1)N/N=C/c1ccco1	0.7
COc1ccc(C(=O)OCC(=O)c2ccc(Br)s2)c(OC)c1	-0.6
CCc1cc(C(=O)NNC(=S)NC(C)c2ccccc2)cs1 (configuration not stated)	-0.1
CCN(C(=O)c1cn(C)c(=O)c2cc(OC)c(OC)cc12)c1cc(C)ccc1C	-1.4
O=C1CC(O)(C(F)F)Oc2ccc3ccccc3c21 (configuration not stated)	4.7
O=C(Nc1ccccc1)Nn1cnnc1	-0.5
O=C(Oc1ccc(Cl)cc1)c1ccc(N2CCOCC2)c([N+](=O)[O-])c1	-1.2
COC(=O)c1c(C(=O)OC)c(-c2ccc(F)cc2)n2c1CSC2	0.1
COc1ccc(NC(=O)c2ccccc2NC(=O)c2cccs2)cc1	-1.0
O=S(=O)(NCc1ccco1)c1ccc2ccccc2c1	-0.5
Cc1cccc(NC(=O)CSc2nc(=O)n(CCN3CCOCC3)c3c2CCCC3)c1C	-0.5
COC(=O)Cc1c(C)c2ccc(OC(C)C)cc2oc1=O	0.1
Cc1cc2oc(=O)cc(-c3cc4ccccc4o3)c2cc1O	0.1
O=C(COc1ccccc1)NCC(c1cccs1)N1CCOCC1 (configuration not stated)	-1.5
COc1cccc(C2C(C#N)=C(N)Oc3cc(C)[nH]c(=O)c32)c1OC (configuration not stated)	0.7
Cc1ccccc1NC(=S)N(C)Cc1cccs1	0.9
Cc1cccc(-n2cccc2)c1C#N	-1.7
CN(C(=O)Cc1c(C(=O)O)n(C)c2ccccc12)c1ccc(Cl)cc1	-0.8
CC(/C=N\NC(=O)c1ccc2c(c1)OCO2)c1ccccc1 (configuration not stated)	0.3
CCCCCn1c(SCCN2CCOCC2)nc2c1c(=O)[nH]c(=O)n2C	-0.2
C#Cc1ccc([C@@H]2C=C(C(=O)O)O[C@H](OCC)[C@H]2CCCO)cc1	0.1
Cc1c(C)[n+](=O)c2c(n1[O-])C(Br)CCC2Br (configuration not stated)	-2.8
CN(Cc1ccsc1)C(=O)CCc1nnc(Cc2c[nH]c3ccccc23)o1	0.1
CC(C)C(NC(=O)CCN1C(=O)c2ccccc2C1=O)c1ccccc1 (configuration not stated)	1.3
CS(=O)(=O)N(CC(=O)Nc1cccc(Cl)c1Cl)c1ccccc1	-0.1

Ordered by value in STK33 kinase inh (high to low): seven of the compounds above
SMILES	STK33 kinase inh
O=C1CC(O)(C(F)F)Oc2ccc3ccccc3c21 (configuration not stated)	4.7
Cc1cc2oc(=O)cc(-c3cc4ccccc4o3)c2cc1O	0.1
Cc1cc(NC(=O)CSc2nnnn2-c2ccc(C)c(C)c2)no1	0.0
O=C(c1ccc(F)cc1)C1CCN(C(=S)Nc2ccccc2Cl)CC1	-0.3
CCN(C(=O)c1cn(C)c(=O)c2cc(OC)c(OC)cc12)c1cc(C)ccc1C	-1.4
COc1ccc(N2CCN(c3nc(Cl)nc(Nc4ccc(F)cc4)n3)CC2)cc1	-1.7
COc1ccc(OCC(=O)c2c[nH]c3ccccc23)cc1	-2.6

Part of the list above, with the structure last.
STK33 kinase inh	SMILES
-0.5	O=S(=O)(NCc1ccco1)c1ccc2ccccc2c1
-0.5	Cc1cccc(NC(=O)CSc2nc(=O)n(CCN3CCOCC3)c3c2CCCC3)c1C
0.1	COC(=O)Cc1c(C)c2ccc(OC(C)C)cc2oc1=O
0.1	Cc1cc2oc(=O)cc(-c3cc4ccccc4o3)c2cc1O
-1.5	O=C(COc1ccccc1)NCC(c1cccs1)N1CCOCC1 (configuration not stated)
0.7	COc1cccc(C2C(C#N)=C(N)Oc3cc(C)[nH]c(=O)c32)c1OC (configuration not stated)
0.9	Cc1ccccc1NC(=S)N(C)Cc1cccs1

(continued)
SMILES	STK33 kinase inh
CCCCNC(=O)N1CCN(c2ccnc3cc(Cl)ccc23)CC1	7.6
O=C(CSc1nnnn1-c1cccnc1)Nc1ccccc1F	-1.7
CC1=Nc2ccccc2N=C(NC(=O)CSC(=S)N2CCN(C)CC2)C1c1ccccc1 (configuration not stated)	0.1
CCC1(c2ccc(Cl)cc2)NC(=O)N(CC(=O)NCc2ccc(F)cc2)C1=O (configuration not stated)	-2.0
COc1ccccc1NC(=O)Cn1nnc(-c2ccccc2NC(=O)c2ccco2)n1	-1.8
CCOc1cccc(-c2nn3c(-c4cc(C)[nH]n4)nnc3s2)c1	0.7
Cc1cc(C)cc(NC(=O)CN2CCc3ccccc3C2)c1	-0.1
CCc1ccc(NC(=O)c2cc(C)no2)cc1	-0.7
CCCNC(=O)Cc1ccsc1	-0.9
CCOc1cc(C(=O)Nc2ccc(S(=O)(=O)Nc3cc(C)on3)cc2)cc(OCC)c1OCC	0.0
Cn1c(=O)c2c(nc(CN3CCN(c4ccccc4)CC3)n2CCCc2ccccc2)n(C)c1=O	-0.1
CC1CCCC(C)N1C(=O)CSc1nc(N)c(-c2ccccc2)c(=O)[nH]1 (configuration not stated)	-0.9
CCn1c(=O)cc(OCC(=O)NCCCN2CCN(c3cccc(Cl)c3)CC2)c2ccccc21	3.0
COCCN(C(=O)COC(=O)c1cc2c(s1)CCCC2)c1c(N)n(Cc2ccccc2)c(=O)[nH]c1=O	-1.5
CC(=O)NC1=NN(C(C)=O)C(c2cccc([N+](=O)[O-])c2)S1 (configuration not stated)	-3.3
O=c1c2c(nc3nc(NCc4cccc(Cl)c4)[nH]n13)CCC2	0.2
CCOC(=O)CN1C(=O)N[C@@H](c2ccc(Br)cc2)C(C(=O)OC)=C1C	-0.5
CCOC(=O)N1CCN(C(=O)CSCC(=O)Nc2nc(-c3ccc(OC)cc3)cs2)CC1	-0.5
Cc1nc(N)nc(Nc2ccc(Cl)cc2)c1Br	0.0
CC(/C=C/c1ccccc1)=N\NC(=O)c1cc(C)[nH]n1	0.0
O=C(NC1CCN(S(=O)(=O)c2ccc(F)cc2)CC1)c1ccco1	-0.2
COc1ccc(N=Cc2ccc(CNS(=O)(=O)c3ccc(Cl)cc3)o2)cc1	-1.0
O=C(Nn1c(O)c(C=C2N=c3ccccc3=N2)sc1=S)c1ccccc1Cl	-2.6
CN1CCN(c2oc(-c3cccs3)nc2S(=O)(=O)c2ccccc2)CC1	-0.8
COc1cccc(NC(=S)NC(=O)/C=C/c2ccc(F)cc2)c1	-0.6
Remaining list, next part
SMILES	STK33 kinase inh
COc1ccccc1C(=O)NCCC(=O)NCC(c1ccc(F)cc1)N1CCOCC1 (configuration not stated)	-0.3
COc1ccccc1N1CCN(C2CCCN(C(=O)CCn3cncn3)C2)CC1 (configuration not stated)	-0.2
CCCN1CCN(CCNC(=O)Nc2ccccc2Cl)CC1	0.3
CCCOc1ccc(C(=O)CCNc2ccc(C)c(Cl)c2)cc1	-2.0
O=C(CSc1nnc(-c2cccs2)n1CC1CCCO1)N1CCCC1 (configuration not stated)	-2.6
COc1cc(OC)cc(-c2nnc(SCC(=O)NCc3cccs3)o2)c1	-0.6
O=C(O)C1CC(c2cccc(Br)c2)=NO1 (configuration not stated)	-1.5
CC1(C)CC(=O)c2cnc(NC(=O)CSc3nc4ccccc4o3)nc2C1	-0.8
COc1cccc(-c2cc(C(F)(F)F)n3nc(N)nc3n2)c1	-0.5
CC(C)c1nnc(NC(=O)CCC(=O)N2CCC(Cc3ccccc3)CC2)s1	-0.3
COc1ccc(OCC(=O)Nc2ccc(N3CCOCC3)c(Cl)c2)cc1	-0.8
COCCn1c(=O)[nH]c(=O)c2c1nc(-c1cc(Br)c3c(c1)OCO3)n2Cc1ccccc1	0.8
Cc1cc(SCC(=O)OCC(=O)N(C)C2CCS(=O)(=O)C2)c(C)cc1Br (configuration not stated)	-0.4
Cc1ncc(C[n+]2csc(CCOC(=O)CC34CC5CC(CC(C5)C3)C4)c2C)c(N)n1	-0.2
COc1cc(OC)cc(C(=O)Nc2c(C)nn(-c3ccccc3)c2C)c1	-4.2
CC(OC(=O)CCCNC(=O)c1ccc(Cl)cc1)C(=O)N(C)Cc1ccccc1 (configuration not stated)	-1.3
CCCCNC(=O)NS(=O)(=O)c1ccc(C(=O)OC)o1	-0.6
O=C(O)c1nn(CCOc2ccc(Cl)cc2Cl)c(=O)c2ccccc12	-0.9
CCOC(=O)Nc1ccc([N+](=O)[O-])cc1OC	-1.1
CC(=O)CC(c1ccc([N+](=O)[O-])cc1)c1c(O)c2ccccc2oc1=O (configuration not stated)	-2.0
O=C(Nc1c(-c2ccccc2)nc2ccc(Cl)cn12)c1cccs1	-1.5
CCOc1ccc(NN=C(C(=O)OC)C(=O)OC)c([N+](=O)[O-])c1	-1.0
C[C@H](NC(=O)[C@@H]1Cc2ccccc2CN1)C(=O)Nc1ccc2c(c1)OCCO2	-1.0
O=C(NCC1CCCO1)C1CC(=O)N(c2ccc(Cl)cc2)C1 (configuration not stated)	0.6
COc1ccc(C2NC(=O)NC(C)=C2C(=O)OCc2ccccc2)cc1 (configuration not stated)	-2.6
(list continues)
SMILES	STK33 kinase inh
COc1ccccc1NC(=O)Nc1nn(C)c2cccc(N(C)C)c12	-2.8
Cc1ccc(S(=O)(=O)N2CCCCC2)cc1NC(=O)c1ccccn1	-0.5
COc1ccc(Oc2ccc(C(F)(F)F)cc2NC(=O)CC(CC(=O)O)c2ccccc2)cc1 (configuration not stated)	1.7
CCOC(=O)C1CCCN(C2=NC(=O)/C(=C/c3ccc(OC)cc3OC)S2)C1 (configuration not stated)	0.9
Cc1ccc(OCCNC(=O)c2ccc(C)cc2)cc1	0.3
C/C(Cn1nc([N+](=O)[O-])cc1C)=N\NC(=O)c1cccc(Br)c1	0.6
Cn1c(=O)[nH]c(=O)c2c1nc(Br)n2Cc1cccc(Br)c1	-0.5
CSc1ccccc1NC(=O)COc1ccccc1C	-0.8
O=C(N/N=C/c1cccc(F)c1)c1ccc(Cl)cc1	-0.2
Cc1ccc(C)c(CN2CCC(CNC(=O)Nc3ccc(Cl)cc3)CC2)c1	-0.8
CCOC(=O)C1CCN(C(=O)COC(=O)C2CCN(S(=O)(=O)c3ccc(C)c(C)c3)CC2)CC1	-1.9
CCCn1c(SCC(=O)NCc2ccccc2)nnc1-c1ccncc1	-1.2
CCOC(=O)CSc1nc2cc(C(=O)N3CCCC3)ccc2c(=O)n1Cc1ccccc1	-0.7
Cc1ccc(CNC(=O)CCC2CCCN(Cc3cccc4cccnc34)C2)o1 (configuration not stated)	-1.0
CCC1CCCCN1Cc1nc(Cc2ccccc2Cl)no1 (configuration not stated)	-3.2
NNC(=O)c1nc(-c2ccccc2)n2c1CCCCC2	1.3
CC(C)(C)c1cc(C(=O)N/N=C/c2ccco2)n[nH]1	-2.3
Cc1ccc(S(=O)(=O)N/N=C/c2cc(Br)c(C)o2)cc1	-2.0
O=C(NCCN1CCOCC1)c1cc(-c2ccccc2Cl)on1	-2.7
CCOC(=O)c1cc(-c2ccccc2)nn1-c1ccccn1	-0.8
Cc1cc(C)c[n+](-c2nc([O-])sc2C=O)c1	-2.3
Nc1ccc(C#Cc2ccccc2)cc1	-0.5
OCC[C@H]1C[C@H](O)[C@@H](O)[C@@]2(CCc3ccccc3CO2)O1	-1.0
COc1ccc(NC(=O)c2ccc3c(=O)n4c(nc3c2)CCCCC4)cc1	-0.8
NS(=O)(=O)c1ccc(CCNC(=O)C2CCCCC2)cc1	-0.5
COc1ccc(/C=N\NC(=O)c2ccc(F)cc2)cc1COc1ccccc1C(N)=O	-0.7
COc1ccccc1CNC(=O)[C@H](C)NC(=O)C1CCN(C(=O)[C@@H](N)Cc2ccccc2)CC1	-0.9
Cc1ccc(S(=O)(=O)c2nc(-c3ccco3)oc2SCC(=O)NCC2CCCO2)cc1 (configuration not stated)	-1.1
Cc1c(Cl)cnc(NC(=O)COC(=O)CCc2nc3ccccc3s2)c1Cl	-2.6

Assay outcomes: PubChem, Broad Institute

This is a subset, and most or all hits are left out here.
